# Compound activity as filed in PubChem.
# Yeast UUG start – alters start codon recognition fidelity in yeast. S. cerevisiae UUG-firefly luciferase reporter, luminescence/redox ratio. activity score, % at 18.7 µM. 0.13% of 350,000 active. AID 602363;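 active = replicate mean at a twofold rise or more, about +100% in these data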;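 also: firefly luciferase made from a UUG start codon reports start codon fidelity; reporter light over untreated wells divided by growth signal over untreated wells; some hits fall short of that in this replicate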
# CSC inhib – cancer stem cell inhibition; cancer stem cell-like cells viability, luminescence; inhibition, % at 7.5 µM; 1.1% of 300,000 active; AID 2717;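 active = mean at 75% or more and at least half the replicates too; tested in HMLE shEcad cells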;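 also: 0% = median of negative and 100% = median of positive control wells; the first replicate is given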
# HIV Env fusion – HIV envelope-mediated fusion inhibition; AID 651610; 1.1% of 360,000 active; HeLa-JRFL Env/CEM21 cell fusion, luciferase; inhibition, % at 12.3 µM;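 active = mean replicate inhibition score of at least 50 and every replicate individually at or above 50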;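 also: 0% = plate neutral controls and 100% = maraviroc near 300 nM; one replicate is shown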
# eIF4H inh – inhibitors of RNA binding by human eIF4H; eIF4H fluorescence polarization binding assay; Q15056; 0.94% of 290,000 active; inhibition, % at 35 µM;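 active = 50% or more with normal probe brightness, or confirmed in later tests; about a fifth of its hits are not listed in these tables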;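 also: calls also rest on retests at 20 µM and on dose response follow-up; 0% = protein and probe with vehicle and 100% = probe without protein; strong numbers were not always called active; many hits fall short of the cut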
# MT1-MMP act inh – inhibitors of human MT1-MMP activation | GFP/RFP ratio change, % at 20 µM | P50281 | 0.061% of 360,000 active | AID 651647 | HT1080 RFP-PRO-GFP cells, GFP/RFP ratio fluorescence, overnight; percent of plate control window, DMSO zero;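 active = GFP/RFP ratio change of at least 30% with cell ATP level not reduced by more than half and red fluorescence within 50% of control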; also: strong numbers were not always called active
#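 Read-out: GFP/RFP fluorescence ratio; Test system: RFP-PRO-GFP reporter HT1080 cells; Compound dosing: single-point 20 µM compound, 1% DMSO; Times: overnight compound exposure at 37 °C.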
# PABP FP inh – blocks human PABP binding to poly(A) RNA | 1% of 290,000 active | inhibition, % at 35 µM | fluorescence polarization | P11940;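 active = 50% or more with normal probe brightness, or confirmed in later tests; about a fifth of its hits are not listed in these tables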;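 also: calls also rest on retests at 20 µM and on dose response follow-up; controls were probe without protein and protein plus probe with vehicle; some compounds called inactive have numbers as strong as hits; many hits fall short of the cut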
# Target sequence (P11940 whole entry, looked up): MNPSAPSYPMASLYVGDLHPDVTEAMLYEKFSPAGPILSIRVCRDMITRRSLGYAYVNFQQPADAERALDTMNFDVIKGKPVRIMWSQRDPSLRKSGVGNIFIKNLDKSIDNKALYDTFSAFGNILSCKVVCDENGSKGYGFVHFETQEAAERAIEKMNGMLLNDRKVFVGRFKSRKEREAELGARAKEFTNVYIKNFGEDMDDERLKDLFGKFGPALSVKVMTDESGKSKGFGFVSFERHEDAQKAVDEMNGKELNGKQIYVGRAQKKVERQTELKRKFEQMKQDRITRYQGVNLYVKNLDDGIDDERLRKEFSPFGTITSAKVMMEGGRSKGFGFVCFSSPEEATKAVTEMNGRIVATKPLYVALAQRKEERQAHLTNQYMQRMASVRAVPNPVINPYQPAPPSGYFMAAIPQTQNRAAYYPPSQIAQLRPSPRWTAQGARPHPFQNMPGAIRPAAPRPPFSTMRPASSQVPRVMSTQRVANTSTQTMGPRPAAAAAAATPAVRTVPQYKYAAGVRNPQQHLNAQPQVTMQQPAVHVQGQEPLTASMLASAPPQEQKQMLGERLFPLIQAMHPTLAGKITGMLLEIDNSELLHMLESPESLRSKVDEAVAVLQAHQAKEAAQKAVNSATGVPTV
# Rce1 inhib – inhibitors of yeast Ras-converting enzyme | Q03530 | yeast membranes, quenched prenylated peptide cleavage fluorescence | calls only | 0.27% of 290,000 active | AID 2563;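 active = fall in fluorescence gain of 50% or more versus controls, with final raw signal at or below 3038400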;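 also: plate controls were neutral control wells for no effect and wells lacking membranes for full effect; tested at 10 µM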
# MT1-MMP act inh RFP – further read-out of MT1-MMP act inh, marked with its call; RFP signal change, %; measured here: RFP expression control read;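 0 = vehicle wells; hits needed this value within 50% of zero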
# Starred values were filed as active, the others as inactive; i = inactive; · = no result given; + = active, no number; & = joins results of further samples. Some of the compounds tested; the hit share may differ from the screen's.
1	O=C(c1nc[nH]c1C(=O)N1CCN(c2ccccc2)CC1)N1CCN(c2ccccc2)CC1
2	NC(Cc1ccc(C(F)(F)F)cc1)c1csc(Nc2ccc(S(N)(=O)=O)cc2)n1 (stereo not drawn)
3	COc1cccc(OC)c1C(=O)Nc1nc2cc3c(cc2s1)OCO3
4	CC(=O)c1ccc(OCC(O)CN2CCN(Cc3ccc4c(c3)OCO4)CC2)cc1 (stereo not drawn)
5	O=S(=O)(c1ccc(-c2csc(Nc3ccc(F)cc3)n2)cc1)N1CCCC1
6	COc1ccc(CS(=O)(=O)CC2(O)CCN(C(=O)c3cccc(C(F)(F)F)c3)CC2)cc1
7	CC(C)C[C@H]1CNC(=O)C(=O)N1CC1CCN(CC2CCC(C(C)(C)C)CC2)CC1 (stereo partly drawn)
8	CCC(C)NS(=O)(=O)c1ccc(OCC(=O)N2CCCC2)cc1 (stereo not drawn)
9	C/C(CC(=O)N(C(C)C)C(C)C)=N\NC(=O)c1ccccc1Br
10	N#C/C(=N\Nc1cccc([N+](=O)[O-])c1)C(=O)c1ccc(Br)cc1
compound no.	1	2	3	4	5	6	7	8	9	10
MT1-MMP act inh RFP	-2	-2	3	1&4	-12	1	3	3	1	-36
CSC inhib	-7	·	-3	-5	-20	5	·	-7	-2	102*
Yeast UUG start	-20	-2	·	-12&-4	-22	·	-18	·	-27	-10
HIV Env fusion	-5	10	-2	-7&14	4	-5	10	·	13	42
eIF4H inh	·	·	-3	-4&8	1	2	·	-6	5	24
Rce1 inhib	·	·	i	i	+	i	·	·	i	i
PABP FP inh	·	·	-3	-10&8	2	-15	·	-23	-4	-2
MT1-MMP act inh	2	0	3	3&-2	-3	-2	2	3	3	-26

11	COc1ccc2c(c1)sc1nc(-c3ccccc3)cn12
12	COc1ccccc1CNC(=O)C(NS(=O)(=O)c1ccc2c(c1)OCCO2)C(C)C (stereo not drawn)
13	COc1ccc(CCC(=O)OCC(=O)c2ccc[nH]2)cc1OC
14	CN(C)c1nccc(N(Cc2ccccc2)Cc2ccccc2)c1C#N
15	COc1ccc(OC)c(N2C(=O)CC(Cc3cc(C)cc(C)c3)C2=O)c1 (stereo not drawn)
16	CC(C)(C)NC(=O)CSc1n[nH]c(=O)n1-c1ccccc1
17	O=C(CCNC(=O)c1ccccc1)NN=Cc1ccc(Br)o1
18	Cc1ccc(NC(=O)c2ccc(Cl)c(S(=O)(=O)N3CCCCCC3)c2)nc1
19	O=C1Nc2ccccc2S/C1=C\C(=O)N1CCCC1
20	CC(=O)Nc1cnc(-c2ccc3c(c2)OCO3)cn1
compound no.	11	12	13	14	15	16	17	18	19	20
MT1-MMP act inh RFP	-2	1	1	-10	-2	2	0	-27	·	0
CSC inhib	91*	-5	-16	5	7	-2	13	-8	0	·
Yeast UUG start	·	-4	-16	·	-12	-3	-14	·	·	-23
HIV Env fusion	·	5	-2	·	4	-80	-9	61*	·	-52
eIF4H inh	5	-1	·	0	0	4	·	·	7	·
Rce1 inhib	i	i	·	i	i	i	·	i	i	·
PABP FP inh	-7	25	·	0	-3	-6	·	·	-7	·
MT1-MMP act inh	17	0	2	0	-2	4	1	7	·	-5

# 9 successive records from above, quoted:
12	COc1ccccc1CNC(=O)C(NS(=O)(=O)c1ccc2c(c1)OCCO2)C(C)C (stereo not drawn)
13	COc1ccc(CCC(=O)OCC(=O)c2ccc[nH]2)cc1OC
14	CN(C)c1nccc(N(Cc2ccccc2)Cc2ccccc2)c1C#N
15	COc1ccc(OC)c(N2C(=O)CC(Cc3cc(C)cc(C)c3)C2=O)c1 (stereo not drawn)
16	CC(C)(C)NC(=O)CSc1n[nH]c(=O)n1-c1ccccc1
17	O=C(CCNC(=O)c1ccccc1)NN=Cc1ccc(Br)o1
18	Cc1ccc(NC(=O)c2ccc(Cl)c(S(=O)(=O)N3CCCCCC3)c2)nc1
19	O=C1Nc2ccccc2S/C1=C\C(=O)N1CCCC1
20	CC(=O)Nc1cnc(-c2ccc3c(c2)OCO3)cn1
compound no.	12	13	14	15	16	17	18	19	20
MT1-MMP act inh RFP	1	1	-10	-2	2	0	-27	·	0
CSC inhib	-5	-16	5	7	-2	13	-8	0	·
Yeast UUG start	-4	-16	·	-12	-3	-14	·	·	-23
HIV Env fusion	5	-2	·	4	-80	-9	61*	·	-52
eIF4H inh	-1	·	0	0	4	·	·	7	·
Rce1 inhib	i	·	i	i	i	·	i	i	·
PABP FP inh	25	·	0	-3	-6	·	·	-7	·
MT1-MMP act inh	0	2	0	-2	4	1	7	·	-5

# (more compounds)
21	CCC(C)NC(=O)C1CCN(S(=O)(=O)c2ccc(-n3cnnn3)cc2)CC1 (stereo not drawn)
22	Cc1ccc2nc(Nc3nc(C)cc(C(F)(F)F)n3)nc(C)c2c1
23	O=C(Nc1ccc(F)cc1)c1sc2cc(C(F)(F)F)cnc2c1-c1cccs1
24	Nc1cccc(O)c1
25	COc1cc2cc(Oc3ccc4ccc(=O)oc4c3)c(=O)oc2cc1O
26	Cc1ccc(NC(=O)c2cnc3ccccc3n2)cc1C
27	O=C(CN1C(=O)NC2(CCCCC2)C1=O)N1CCN(S(=O)(=O)c2ccc(Cl)s2)CC1
28	CCC1CCCCN1CCCNC(=O)CCC(=O)N1CCOc2ccccc21 (stereo not drawn)
29	CC(C)(C)c1ccc(-c2nnc(N)o2)cc1
30	CCCn1c(=S)[nH]c2cc(C(=O)NCc3ccccc3OC)ccc2c1=O
compound no.	21	22	23	24	25	26	27	28	29	30
MT1-MMP act inh RFP	3	2	-1	6	-6	2	2	4	3	-8
CSC inhib	-6	-7	9	-8	-3	-9	·	-8	-6	·
Yeast UUG start	-28	-18	·	-18	0	·	28	-23	·	-13
HIV Env fusion	-1	-33	·	·	·	-127	9	3	-118	13
eIF4H inh	-8	6	4	·	2	-2	·	6	-11	·
Rce1 inhib	i	i	i	·	i	i	·	i	i	·
PABP FP inh	13	1	15	·	6	-4	·	-1	0	·
MT1-MMP act inh	-1	2	0	-3	2	2	-1	0	-1	-1

31	CC(C)[C@H](NC(=O)Nc1cccc(C(F)(F)F)c1)C(=O)O
32	Cc1ccccc1CC(=O)Nc1ccc(C(=O)N2CCCC2)cc1
33	COc1nc2c(C)cccc2cc1-c1noc(-c2ccco2)n1
34	CCCCc1nc2n[nH]c(N)c2c2c1CSC(C)(C)C2
35	CCc1nnc(NC(=O)CCC(=O)Nc2ccc(OC)cc2OC)s1
36	CSc1nsc(SCC(=O)N2CCc3ccccc32)n1
37	COc1ccc(CNC(=O)C(c2ccc(C)cc2)N(Cc2cccs2)C(=O)c2ccc3c(c2)OCCO3)cc1 (stereo not drawn)
38	O=C(c1ccncc1)N1N=C(C2CCCCC2)CC1(O)C(F)(F)F (stereo not drawn)
39	Cc1ccc(C)c(S(=O)(=O)Nc2ccc3scnc3c2)c1
40	Cc1cc(OC(F)F)ccc1NC(=O)Nc1ccc2c(c1)OCO2
compound no.	31	32	33	34	35	36	37	38	39	40
MT1-MMP act inh RFP	0	0	-2	-1	5	2	-17	3	-12	1
CSC inhib	-1	0	14	-10	3	3	15	-3	42	-3
Yeast UUG start	-21	11	-6	·	-16	-7	2	·	-1	-9
HIV Env fusion	·	-5	·	·	4	·	12	2	·	3
eIF4H inh	-4	-2	-12	5	-6	6	2	-13	-3	-5
Rce1 inhib	i	i	·	i	i	i	i	·	i	i
PABP FP inh	17	-5	-6	6	16	8	7	3	2	-12
MT1-MMP act inh	0	-3	-8	2	1	2	-42	-6	-5	0

41	Cc1cc(C)c2c(N)c(C(=O)NCc3ccco3)sc2n1
42	O=C(CCCC(=O)N(CC(=O)NC1CCCC1)c1ccc(F)c(Cl)c1)Nc1ccccn1
43	COc1ccc(-c2cnc3c(NC(C)=O)cc(-c4ccccc4CN(C)C)cn23)cc1OC
44	Cc1c(NC(=O)c2cc3ccccc3c(=O)s2)c(=O)n(-c2ccccc2)n1C
45	CCCCNc1ncnc2c1cnn2Cc1ccc(Cl)cc1
46	O=C(Cn1cnc2c(nnn2Cc2ccccc2F)c1=O)NCc1ccco1
47	Cc1c(NC(=S)N/N=C\c2ccccc2O)c(=O)n(-c2ccccc2)n1C
48	COc1ccc(-n2c(-c3cccc(C)c3[N+](=O)[O-])n[nH]c2=S)cc1
49	CC(=O)N1[C@H](C)C=C[C@]1(Cc1ccccc1)C(=O)O
50	Cc1sc2ncn(CC(=O)NCC(=O)N3CCN(c4ccc(F)cc4)CC3)c(=O)c2c1C
compound no.	41	42	43	44	45	46	47	48	49	50
MT1-MMP act inh RFP	-1	0	-2	0	-7	1	5	2	0	-3
CSC inhib	·	-16	·	-9	46	6	-2	-5	-3	30
Yeast UUG start	·	-4	-45	-23	1	7	·	·	5	-4
HIV Env fusion	·	1	-2	11	-20	-19	6	-1	-7	11
eIF4H inh	6	-6	·	-4	-15	4	14	-7	-4	0
Rce1 inhib	i	i	·	i	i	i	i	i	i	i
PABP FP inh	-6	7	·	-10	3	14	14	0	-5	4
MT1-MMP act inh	-1	1	2	-4	-1	0	5	5	-1	0

51	Brc1cc(-c2ccccc2)nc(-c2ccccc2)n1
52	Cc1noc(C)c1Cn1nc(C(=O)O)c2ccccc2c1=O
53	O=C(Cn1ccc(C(F)(F)F)n1)NNC(=O)c1cccnc1
54	Cc1ccc(C(=O)N/N=C/c2ccc(-c3cccc(C(F)(F)F)c3)o2)cn1
55	CC1CCc2c(C(=O)NCCCN3CCOCC3)csc2C1 (stereo not drawn)
56	Cc1cccc2cc(C3CC(c4cccs4)=NN3C(=O)CCC(=O)O)c(Cl)nc12 (stereo not drawn)
57	O=C(NNc1c(F)c(F)cc(F)c1F)c1ccco1
58	Cc1c(C(=O)Nc2ccc(OCc3ccccc3)cc2)cccc1[N+](=O)[O-]
59	Oc1ccc(-c2csc(-c3cccnc3)n2)c(O)c1
60	CC(C)Cn1cnc2c1c(=O)n(CC(=O)O)c(=O)n2Cc1ccccc1
compound no.	51	52	53	54	55	56	57	58	59	60
MT1-MMP act inh RFP	4	9	1	-8	-1	5	3	-6	-7	3
CSC inhib	65	14	-8	44	-6	-18	10	19	4	2
Yeast UUG start	-4	2	-12	-24	1	-27	-16	-17	·	-10
HIV Env fusion	7	·	-12	-99	·	-31	0	-65	-42	-11
eIF4H inh	·	0	1	-2	8	6	·	10	2	14
Rce1 inhib	i	i	i	i	i	i	·	i	i	i
PABP FP inh	·	-6	-9	-1	0	-2	·	8	-6	-14
MT1-MMP act inh	-3	6	-1	9	-3	2	-3	-5	-7	1

61	Cc1ccc(C(=O)NC(=S)N2CCN(c3cc(C)ccc3C)CC2)cc1
62	COc1ccccc1Cn1c(C)c(C(=O)NCCC#N)sc1=O
63	Cc1nc2cc(CC(=O)O)ccc2o1
64	COc1ccc(Cl)cc1N(C(C)C(=O)O)S(C)(=O)=O (stereo not drawn)
65	O=C(CN1CCCC1)NCC12CC3CC(CC(C3)C1)C2
66	CC(=O)c1cccc(NC(=O)N2CCCC2C(=O)NC2CCCC2)c1 (stereo not drawn)
67	CC(=O)Nc1cccc(C(=O)OC(C(=O)c2ccc(C)c(C)c2)c2ccccc2)c1 (stereo not drawn)
68	CC(=O)Nc1ccc(-c2cn3ccsc3n2)cc1
compound no.	61	62	63	64	65	66	67	68
MT1-MMP act inh RFP	1	3	2	-4	0	1	-5	13
CSC inhib	21	·	-12	-6	-15	·	23	9
Yeast UUG start	-13	-18	-19	·	·	-5	3	-32
HIV Env fusion	0	-31	0	12	·	-1	-12	-161
eIF4H inh	-1	·	9	-2	-7	0	7	-3
Rce1 inhib	i	·	i	i	i	i	i	i
PABP FP inh	-3	·	9	-2	2	8	9	-12
MT1-MMP act inh	0	7	0	-5	0	-1	2	2
